# Compound activity from PubChem.
# KCNQ2 pot = KCNQ2 (rat) channel potentiation; O88943; CHO-K1 KCNQ2, FluxOR thallium flux fluorescence; stronger effect = higher value; B-score at 10 µM; hit rate 0.54% among 310,000; AID 2239;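 active = fluorescence ratio B-score at least 3 SD of library B-scores, with initial fluorescence B-score within 3 SD, cut at about 5.3 in these data; same plate scores as AID 2156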;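 also: B-score of peak minus minimum over baseline fluorescence ratio after K+ and Tl+ stimulus; positive B-score means potentiation of KCNQ2 with more thallium influx and brighter signal; only the inactives scoring about 0 or higher are listed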
# Target sequence (O88943 whole entry, looked up): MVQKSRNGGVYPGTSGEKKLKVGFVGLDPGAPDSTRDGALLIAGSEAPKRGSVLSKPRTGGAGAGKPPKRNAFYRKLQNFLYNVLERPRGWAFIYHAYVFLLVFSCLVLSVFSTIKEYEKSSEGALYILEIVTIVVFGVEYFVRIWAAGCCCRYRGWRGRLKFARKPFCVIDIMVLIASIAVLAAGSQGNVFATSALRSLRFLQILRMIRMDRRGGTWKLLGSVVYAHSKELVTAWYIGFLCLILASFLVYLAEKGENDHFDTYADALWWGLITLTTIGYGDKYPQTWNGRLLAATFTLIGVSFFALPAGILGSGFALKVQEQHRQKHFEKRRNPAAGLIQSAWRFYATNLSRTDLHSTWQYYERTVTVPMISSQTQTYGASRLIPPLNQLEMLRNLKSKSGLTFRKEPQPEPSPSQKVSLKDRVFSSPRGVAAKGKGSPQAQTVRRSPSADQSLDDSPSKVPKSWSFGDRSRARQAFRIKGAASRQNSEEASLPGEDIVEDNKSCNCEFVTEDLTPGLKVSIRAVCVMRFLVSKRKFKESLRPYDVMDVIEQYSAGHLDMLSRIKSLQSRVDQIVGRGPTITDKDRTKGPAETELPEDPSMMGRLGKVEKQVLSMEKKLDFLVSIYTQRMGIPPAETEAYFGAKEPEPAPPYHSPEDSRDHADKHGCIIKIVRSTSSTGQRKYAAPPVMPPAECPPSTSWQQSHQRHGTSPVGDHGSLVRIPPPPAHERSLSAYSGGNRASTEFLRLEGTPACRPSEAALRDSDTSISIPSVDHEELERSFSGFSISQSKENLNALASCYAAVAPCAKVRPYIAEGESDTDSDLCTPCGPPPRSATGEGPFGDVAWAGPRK
# KCNQ2 pot baseline = also measured in KCNQ2 pot; calls as there; B-score; compound at 10 µM; measured here: initial fluorescence intensity artifact check;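 brightness before thallium and not channel activity; 0 = typical well and far values either way flag optical interference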
# * = called active by the depositor.
SMILES,KCNQ2 pot,KCNQ2 pot baseline
CCOC(=O)c1[nH]c2ccccc2c1NC(=O)CN(C)C,0.55,0.12
Cc1ccc(CONC(=O)/N=C/N(C)C)cc1,0.99,-1.5
COc1ccccc1C(=O)NN=C1CCN(Cc2ccccc2)CC1,0.87,-1.9
Cc1ccc(CSc2nnc(-c3ccccn3)n2N)cc1,0.58,-0.74
CCOc1ccc(NC(=O)c2[nH]c(C)c(C(C)=O)c2C)cc1,0.22,0.03
Nn1c(SCc2csc(-c3ccccc3)n2)nnc1-c1cccs1,0.37,2.2
Cc1cc(C)n(C(=O)CCC(=O)NCc2ccccc2)n1,1.6,0.3
CC(=O)NS(=O)(=O)c1ccc(N=NN2CCCCCC2)cc1,1.7,-0.75
Cn1c(=O)n(C)c2cc(NC(=O)c3ccccc3NS(C)(=O)=O)ccc21,0.02,0.49
COC(=O)C1CC(O)CN1C(=O)Nc1ccccc1 (centres undefined),1,-0.6
CC1CCCCN1C(=S)NC(=O)c1cccs1 (centres undefined),4.1,-1.8
Cc1cc(C)c2[nH]c(C)c(CN3CCCCCC3)c(=O)c2c1,0.15,-0.45
Cc1ccc(CCC(=O)Nc2ccccc2F)s1,1.5,-0.2
COc1cc(OC)cc(C(=O)NN(CCC#N)C2=NS(=O)(=O)c3ccccc32)c1,0.71,-0.14
COc1ccc(CCNC(=O)C2CCN(C(=O)c3ccccc3)CC2)cc1,0.13,1.2
CCN(CC)C(=O)c1[nH]cnc1C(=O)N[C@@H](C)C(=O)OC(C)(C)C,0.66,-0.88
Cc1ccc(NCCc2ccc(C)nc2)cc1,0.03,-0.32
Cc1cc(C)nc(-n2nc(C)cc2NC(=O)CN2CCCC2)n1,0.21,-2.6
O=C(Oc1ccccc1)c1ccc(NC(=O)c2ccco2)cc1,0.31,-0.25
O=C(c1noc2c1CCCC2)N1CCN(Cc2ccccc2)CC1,0.71,-1.2
COCCCNC(=S)N1CCN(C(c2ccccc2)c2ccccc2)CC1,0.54,-1.2
Cc1ccc(/C=C/S(=O)(=O)N2CCC(C(=O)O)CC2)cc1,0.43,-0.46
Cc1ccc(C(=O)N(c2c(C)n(C)n(-c3ccccc3)c2=O)C(C)C)cc1,0.25,-0.63
Fc1ccc(N2CCN(Cc3c[nH]c4ccccc34)CC2)cc1,0.09,-1
CCCC#Cc1ccc2c(c1)COc1c3ccccc3nn1-2,0.06,0.11
CCC/C(=N\NC(=O)C1CC1)c1ccccc1,0.52,0.47
O=C(CN(Cc1cccs1)C(=O)CCC(=O)Nc1ccccn1)NCc1ccccc1,0.82,-0.01
O=C(O)C1=C[C@H](c2ccc3c(c2)OCO3)C[C@H](OCCCCO)O1,0.57,-0.09
CCn1c2ccccc2c2nnc(NN)nc21,1.3,-0.51
Cc1ccc(C2CC(=O)c3cnc(N4CCN(c5ccccc5)CC4)nc3C2)cc1 (centres undefined),0.96,-0.53
O=C(COc1ccc(Cl)cc1Cl)Nc1ccc(-c2ccc(N3CCOCC3)nn2)cc1,0.1,-0.21
Cc1ccc(S(=O)(=O)N2CCN(C(=O)C(C)Cn3nc(C)c(C)c3C)CC2)cc1C (centres undefined),0.14,0.66
COc1ccc(OC)c(N(CC(=O)Nc2cccnc2)S(=O)(=O)c2ccc(OC)c(OC)c2)c1,1.3,-1.1
Cc1nc2c(-c3ccc(F)cc3)c(C)nn2c(C)c1CCC(=O)Nc1ccc(F)cc1F,0.5,0.14
Cc1ccc(C(=O)Nc2cccc(C(=O)N/N=C/c3ccccc3F)c2)cc1,1.9,-2.6
CC(=O)Nc1ccccc1NC(=O)c1cccc2ccccc12,1,-2.3
COc1ccc(CN(Cc2cc3cccc(C)c3[nH]c2=O)C(=O)N(C)C)cc1,2.4,-0.2
Cc1cc(NC(=O)C23CC4CC(C2)CC(n2cnc([N+](=O)[O-])n2)(C4)C3)no1,1.2,-0.14
CCOC(=O)N1CCN(c2c(NCC3CCCO3)c(=O)c2=O)CC1 (centres undefined),0.39,-0.13
COc1ccc(-c2nnc(N(C)C(=O)c3ccno3)s2)cc1,0.32,0.68
Cn1c(=O)n(CC(=O)NCC2CCCO2)c(=O)c2c3c(sc21)COC(C)(C)C3 (centres undefined),0.14,1.4
CC(OC(=O)CCCN=C1NS(=O)(=O)c2ccccc21)C(=O)Nc1ccc(F)cc1Cl (centres undefined),0.48,-2.1
O=C(NCCN1CCCCC1)c1ccc(F)cc1Cl,0.36,-1.8
COc1ccccc1S(=O)(=O)Cc1ccc(C(=O)NCc2ccco2)o1,0.22,0.03
CCc1nn(CC(=O)NCCCN(CC)c2cccc(C)c2)c(=O)c2cc3occc3n12,0.62,-1.2
C/C(=N\Nc1cc(C(F)(F)F)ccc1Cl)c1ccncc1,0.97,0.73
CCCc1cnc(N2CCN(C(=O)c3ccc(F)cc3)CC2)nc1,1.8,-1.4
Cc1ccc(NC(=O)CN2C(=O)C3CCCCN3C(=O)c3ccccc32)cc1 (centres undefined),0.13,0.01
Cn1c(=O)c2c(ncn2CC(=O)N2CCN(S(=O)(=O)c3ccc(Cl)cc3)CC2)n(C)c1=O,0.96,0.96
COc1ccc(N(CC(=O)NCCSC2CCCCC2)S(=O)(=O)c2ccc(C)cc2)cc1,0.19,0.08
Cc1ccn2cc(C(=O)Nc3nnc(C)s3)nc2c1,2,-1.3
COc1ccc(COC(=O)C2=C(C)NC(=O)NC2c2cc(OC)ccc2OC)cc1 (centres undefined),4.2,-1.6
Cc1ccc(C2CC(C(F)(F)F)n3ncc(C(N)=O)c3N2)cc1 (centres undefined),0.52,-1.3
CCCCCc1nnc(NC(=O)c2ccc(=O)n(C)n2)s1,1,0.72
C=CCONC(=O)c1cc(OCC(F)(F)F)ccc1OCC(F)(F)F,0.12,-1.1
Cc1ccc(C(=O)Oc2ccc(-c3nnco3)cc2)o1,2.3,0.15
CCSc1nc(=S)n(-c2ccccc2)c(C)c1C(C)=O,1.2,-0.29
Cc1cccc(C)c1-n1c(C)cc(/C=N/NC(N)=S)c1C,0.48,-0.89
O=C(COc1ccccc1)Nc1ccc2[nH]c(=O)[nH]c2c1,1.1,0.16
Cc1ccccc1-n1nc(C)c2c1N=C1C(Cl)=CC(Cl)=CN1C2c1ccc(C(=O)O)cc1 (centres undefined),1.6,-1.2
# Later entries
SMILES,KCNQ2 pot,KCNQ2 pot baseline
O=c1c2ccccc2ncn1-c1cccc(Cl)c1,1.2,-0.02
O=C(Cc1ccc([N+](=O)[O-])cc1)c1ccc(O)cc1O,1.5,-1.1
Cc1cc(C)c(C#N)c(SCc2ccccc2C(=O)O)n1,2.4,0.95
Cc1ccc(NC(=O)CNC(=O)N2CC(=O)Nc3ccccc32)cc1F,0.73,1.2
CCOC(=O)[C@@H]1C(c2c(OC)cc(OC)cc2OC)=NO[C@@H]1C(=O)OCC,0.49,-0.99
COC(=O)COc1ccc(S(=O)(=O)Nc2cc([N+](=O)[O-])ccc2C)cc1,1.2,-1.3
Cn1c(N/N=C/c2cccs2)nc2c1c(=O)n(Cc1ccccc1)c(=O)n2C,0.43,-1
O=C(Nc1ccc(OC(F)(F)F)cc1)Oc1ccccc1N1CCOCC1,0.12,-1.2
O=C(CN1C(=O)COc2ccc(Cl)cc21)N1CCc2ccccc21,1.3,0.04
Cc1c(-c2ccccc2)nc2ccccc2c1C(=O)O,2.1,-0.04
Cn1c(N)c(C(=O)COC(=O)CCCc2nc3ccccc3s2)c(=O)n(C)c1=O,1.6,0.02
CCOC(=O)c1[nH]c(C)c(C(=O)N2CCN(c3ccccc3)CC2)c1C,1.1,-0.47
Cn1c(SCc2c(Cl)cccc2Cl)nnc1-c1ccc2nonc2c1,0.28,-1.4
COC(=O)c1ccc(C(C(=O)NC2CCCCC2)N(Cc2ccccc2)C(=O)Cc2cccs2)cc1 (centres undefined),0.32,0.26
CCN=C1S/C(=C\c2ccc(OCC)c(OC)c2)C(=O)N1CC,0.2,2.6

# Random excerpt: 2 compounds from above, in no set order.
SMILES,KCNQ2 pot,KCNQ2 pot baseline
Cc1ccc(C(=O)Nc2cccc(C(=O)N/N=C/c3ccccc3F)c2)cc1,1.9,-2.6
Cc1cc(C)c(C#N)c(SCc2ccccc2C(=O)O)n1,2.4,0.95

# Other records follow.
SMILES,KCNQ2 pot,KCNQ2 pot baseline
O=S(=O)(Nc1ccc(Cl)nn1)c1ccccc1,0.64,0.86
O=C(c1cccc(C(F)(F)F)c1)C1CCCN(C(=O)CCc2cnccn2)C1 (centres undefined),0.09,-0.44
CCn1cc(/C=N\NC(=O)c2c[nH]c3ccccc23)c(C)n1,0.03,0.61
O=C(Nc1ccc(Oc2ccc(Cl)cc2)c(Cl)c1)c1cc(I)cc(I)c1O,2.2,0.7
NC(=O)COC(=O)C(Cc1ccccc1)NS(=O)(=O)c1ccccc1F (centres undefined),1.5,-0.16
Cc1cc(=O)oc2c(CN(CC(C)C)CC(C)C)c(O)ccc12,0.06,-1.1
CCn1c(=O)c2ccccc2n2c(SCC(=O)N3CCCc4ccccc43)nnc12,0.84,-0.93
CC(C)N(Cc1ccccc1)C(=O)c1ccc2c(c1)OCO2,0.03,0.52
Nc1nc(NC(=O)C(Cl)(Cl)Cl)nn1-c1ccccc1,1.7,0.41
O=C1CCc2cc(S(=O)(=O)N3CCC(C(=O)NCc4ccccn4)CC3)ccc2N1,0.1,-0.82
CC(=O)Nc1ccc(-c2csc(-c3cccnc3)n2)cc1,0.27,0.71
COc1ccc(-c2nc(C)sc2CC(=O)O)cc1OC,0.07,-0.18
COc1cccc(NC(=O)COC(=O)CCS(=O)(=O)c2ccc(C)cc2)c1,1.1,-1.1
Cn1c(SCC(=O)NCc2ccc3c(c2)OCO3)nnc1-c1c[nH]c2ccccc12,0.09,-0.71
CC1CN(CC(=O)Nc2ccc(Br)cn2)CC(C)O1 (centres undefined),0.37,-1.4

# 3 entries already listed, ordered by the number in KCNQ2 pot, smallest number first:
SMILES,KCNQ2 pot,KCNQ2 pot baseline
O=C1CCc2cc(S(=O)(=O)N3CCC(C(=O)NCc4ccccn4)CC3)ccc2N1,0.1,-0.82
CC(=O)Nc1ccc(-c2csc(-c3cccnc3)n2)cc1,0.27,0.71
NC(=O)COC(=O)C(Cc1ccccc1)NS(=O)(=O)c1ccccc1F (centres undefined),1.5,-0.16

# Whole records as entered above:
# NC(=O)COC(=O)C(Cc1ccccc1)NS(=O)(=O)c1ccccc1F (centres undefined) as listed: KCNQ2 pot = 1.5; KCNQ2 pot baseline = -0.16
# Cc1cc(=O)oc2c(CN(CC(C)C)CC(C)C)c(O)ccc12 as listed: KCNQ2 pot = 0.06; KCNQ2 pot baseline = -1.1

# (listing goes on)
SMILES,KCNQ2 pot,KCNQ2 pot baseline
Cc1cc(Nc2ccccc2)n(CCC#N)n1,1.2,0.19
CS(=O)(=O)N(CC(=O)N1CCCC1)c1ccccc1F,1.2,-2.3
CCOCCCNC(=O)Cc1ccc(Br)cc1,0.54,0.14
COc1cc(OC)c(OC)cc1CN1CCN(Cc2cccc(F)c2)CC1,2.3,0.39
Cc1c(C(=O)NN2CCN(C)CC2)cccc1[N+](=O)[O-],1.3,-0.03
CN(Cc1ccccc1)C(=S)NC(=O)c1ccc(-c2ccccc2)cc1,7.1*,0.01*
O=C(CCn1nc(-c2ccc(Cl)cc2)ccc1=O)NCc1ccccn1,0.36,0.15
CN(C)c1ccc(NC(=O)CN2CCN(S(=O)(=O)c3cc(Cl)ccc3Cl)CC2)cc1,1.3,-0.05
CCn1c(C)c(C)c2cc(C(=O)NCCCN3CCOCC3)ccc21,0.01,1.5
COc1cccc2c(C)cc(N3CCCCCC3)nc12,0.73,0.03
CCOc1ccc(N(CC(=O)NCCSCc2ccc(C)cc2)S(C)(=O)=O)cc1,1.2,0.91
CCc1ccc(OCC(=O)Nc2nnc(-c3ccco3)s2)cc1,2.6,-0.07
CN(C(=O)n1cnc2ccccc21)c1ccccc1,0.55,0.17
COc1cc(NC(=O)c2cc3c(CO)cnc(C)c3oc2=Nc2cccc(C(N)=O)c2)cc(OC)c1,0.54,0.35
CCN(CC)S(=O)(=O)c1ccc(S(=O)(=O)N2CCCC2)cc1,0.02,-0.01
CC(=O)c1cccc(NC(=O)c2ccc(Br)o2)c1,1,0.32
COc1cc(C2C(C(=O)C(C)(C)C)=C(O)C(=O)N2Cc2ccccc2)ccc1O (centres undefined),0.67,2.1
COc1ccccc1CNS(=O)(=O)c1ccc2c(c1)oc(=O)n2C,0.66,0.97
Cc1ccc(C(=O)NCC(=O)OC(C)C(=O)NCCC2=CCCCC2)cc1C (centres undefined),0.39,0.21
CCCc1cc(C(=O)Nc2cccnc2Cl)no1,1.2,-0.73
NC(=O)c1ccccc1NC(=O)c1ccccc1S(=O)(=O)c1ccccc1[N+](=O)[O-],0.03,-0.01
COc1ccc(OC)c(NC(=S)Nc2ccccc2)c1,0.58,-0.51
CCOCc1nnc(NC(=O)C2CC(=O)N(CCc3ccc(F)cc3)C2)s1 (centres undefined),0.85,0.56
CCc1nc(C)cn1S(=O)(=O)c1cc(OC)c(C)cc1C,0.17,-0.95
COc1ccc(OC)c(S(=O)(=O)N2CCC(C(=O)N(C)Cc3ccccc3)CC2)c1,1.3,-0.5
CCC(C)(C)NC(=O)C(c1ccc(C)o1)N(Cc1cccs1)C(=O)Cn1nnc2ccccc21 (centres undefined),0.13,0.62
COc1ccc(NC(=O)CCSCCC(=O)Nc2ccc(OC)cc2OC)c(OC)c1,0.19,-0.55
S=C(NCc1cccnc1)Nc1ccc(Cl)c(Cl)c1,0.02,-0.8
O=C(C1CCCO1)N1CCN(S(=O)(=O)c2ccc(F)cc2)CC1 (centres undefined),0.05,1.5
CC(C)(C)c1cc(=O)[nH]c(SCc2ccccc2Cl)n1,1.7,-0.39
CCCCNC(=O)c1cn(CC)c2ccc(S(=O)(=O)N3CCCC3)cc2c1=O,0.01,-0.67
O=C(NC1CC1)C1=C[C@H](C2CCCCC2)C[C@H](OCCCCO)O1,0.23,-0.29

# A portion of the library (hit frequency here may not be typical).
